2A StopGo = FMDV 2A StopGo reporter, luciferase signal | human cells with a luciferase reporter of 2A StopGo recoding; control for the full effect not named in the record | Potency, µM (top dose mostly 57.9 µM), inactives show at the highest dose signal change, negative = less light | 410,000 compounds, 1.2% hits | AID 1159524; active = well fitted falling curve with a large enough effect; inconclusive = small, poorly fitted or top-dose-only effect; inactive = no such curve, though single readings can be large or run the other way; tested in HEK293T cells; note: % is set by controls: 0 for no effect and ±100 for the full control effect; nearly all actives have a fitted effect of over 45% in size; luciferase light after 4 h
Cruzain noTriton = cruzain (T. cruzi) inhibition without detergent | AID 1476 | Potency, µM, for inactives: max response, negative = inhibition, hits mostly inhibitors | P25779 | 200,000 compounds, 2.3% hits | purified cruzain, Z-FR-AMC fluorescence, no detergent;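 note: plate controls were enzyme without inhibitor for no effect and buffer without enzyme for full effect; nearly all actives have a fitted effect of over 40% in size; top concentration of the series not given in the record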
Target sequence (P25779 123-467 limits assumed): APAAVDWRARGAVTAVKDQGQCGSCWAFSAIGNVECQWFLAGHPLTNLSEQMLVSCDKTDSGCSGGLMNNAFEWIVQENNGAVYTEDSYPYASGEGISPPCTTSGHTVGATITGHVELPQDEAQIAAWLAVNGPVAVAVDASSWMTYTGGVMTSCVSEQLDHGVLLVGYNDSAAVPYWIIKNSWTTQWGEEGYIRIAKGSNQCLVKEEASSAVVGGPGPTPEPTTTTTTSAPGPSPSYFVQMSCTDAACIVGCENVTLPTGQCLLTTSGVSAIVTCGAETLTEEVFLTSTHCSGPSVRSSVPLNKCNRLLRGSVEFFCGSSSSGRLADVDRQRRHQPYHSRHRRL
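Purified cruzain at 1.5 nM, pre-incubated 15 min with compound at room temperature in 100 mM sodium acetate pH 5.5, 5 mM DTT, 0.00005% Triton X-100. Reaction started with 2 uM Z-FR-AMC; AMC fluorescence increase over 60 s gives rate.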
RE007 growth inh = less growth of the S. pombe RE007 Vpr strain | 360,000 compounds, 0.21% hits | Potency, µM (titrated, usually from 92.2 µM), for the others: at the top dose activity change, negative = less growth | AID 651644 | S. pombe RE007 Vpr strain, BacTiter-Glo ATP luminescence, 24 h; control for the full effect not named in the record; active = well fitted falling curve with a large enough effect; inconclusive = small, poorly fitted or top-dose-only effect; inactive = no such curve, though single readings can be large or run the other way;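 note: % is set by controls: 0 for no effect and ±100 for the full control effect; nearly all actives have a fitted effect of over 50% in size; the assay follows cell death caused by Vpr and the record does not say whether a fall means rescue or toxicity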
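Fission yeast RE007 carrying one integrated HIV-1 vpr copy, seeded at OD 0.01 in PMG+AL medium with 23 nL pinned compound. Grown 24 h at 30 degrees; viability read by BacTiter-Glo luminescence after 5 min.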
SARS PLP yeast = inhibitors of SARS-CoV papain-like protease in yeast. S. cerevisiae expressing SARS-CoV PLpro, growth rescue; control for the full effect not named in the record. Potency, µM (titrated, usually from 32.9 µM), for inactives: top-dose activity, positive = growth rescue. 330,000 compounds, 0.19% hits; active means well fitted rising curve with a large enough effect; inconclusive means small, poorly fitted or top-dose-only effect; inactive means no such curve, though single readings can be large or run the other way; note: 0% is about no effect; nearly all actives have a fitted effect of over 55% in size; growth read by luminescence after 48 h
Lassa entry inh = inhibitors of Lassa virus binding or cell entry; Lassa virus pseudotype entry inhibition, cell reporter; control for the full effect not named in the record; Potency, µM (highest dose often 37.9 µM), for the others: top-dose activity change, negative = inhibition, actives largely listed as inhibitors; 300,000 compounds, 1.2% hits; AID 540256; active means well fitted inhibition curve with a large enough effect; inconclusive means small, poorly fitted or top-dose-only effect, or effect the other way; inactive means flat fitted curve, though single readings scatter; tested in HEK293 cells; note: % is set by controls: 0 for no effect and ±100 for the full control effect; nearly all actives have a fitted effect of over 50% in size; luciferase read-out
Cruzain inh Det = blocks cruzain activity in presence of Triton detergent; purified cruzain, Z-FR-AMC fluorescence, 0.01% Triton; Potency, µM, for inactives: max response, negative = inhibition, most hits filed as inhibitors; 200,000 compounds, 0.43% hits; AID 1478;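 note: plate controls were neutral wells for no effect and buffer without enzyme for full effect; nearly all actives have a fitted effect of over 40% in size; top concentration of the series not given in the record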
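Purified cruzain (1.5 nM final) was preincubated with compounds for 15 min at room temperature in 100 mM sodium acetate pH 5.5, 5 mM DTT, 0.01% Triton X-100. Reaction started with 2 uM Z-FR-AMC; AMC fluorescence change over 60 s gave activity.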
NS1 function inh = blocks influenza NS1 protein function. 270,000 compounds, 0.4% hits. S. cerevisiae slowed by influenza A NS1, growth recovery by OD600. Potency, µM (titrated, usually from 46.1 µM), inactives show at the top dose activity, positive = more growth; active means well fitted rising curve with a large enough effect; inconclusive means small, poorly fitted or top-dose-only effect; inactive means no such curve, though single readings can be large or run the other way; note: nearly all actives have a fitted effect of over 50% in size
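OD600 was taken as the measure of yeast growth restored by compound in an NS1-expressing S. cerevisiae strain. Cells had been washed out of glucose medium and diluted 1:100 into galactose -URA medium, pH 6.0.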
MARV entry inh = inhibitors of Marburg virus binding or cell entry; Marburg virus pseudotyped entry inhibition, cell reporter; control for the full effect not named in the record; about a third of the inactives were read at about 46 µM; Potency, µM (top dose mostly 37.8 µM), without a hit: at the highest dose activity change, negative = inhibition, most hits filed as inhibitors; 300,000 compounds, 1.8% hits; AID 540276; active = well fitted inhibition curve with a large enough effect; inconclusive = small, poorly fitted or top-dose-only effect, or effect the other way; inactive = flat fitted curve, though single readings scatter; tested in HEK293 cells; about a fifth of its hits are not listed in these tables; note: % is set by controls: 0 for no effect and ±100 for the full control effect; luciferase read-out
* hit, by the source's call; u = inconclusive; x = not tested or not shown; & = joins results of further samples; [ ] = dose if it differs, or a comment. Unless noted, calls come from the whole dose curve; as a rule, active = well fitted curve in the direction sought with a large enough effect; inconclusive = small, poorly fitted or top-dose-only effect, or another doubt; inactive = no such curve, though single readings can be large; an effect the other way counts as inactive or inconclusive. Potency is the fitted concentration of half-maximal effect.

SMILES	2A StopGo	Cruzain noTriton	RE007 growth inh	SARS PLP yeast	Lassa entry inh	Cruzain inh Det	NS1 function inh	MARV entry inh
c1ccc(Nc2ccccc2Nc2ccccn2)nc1	-15%	-15%	-17%	8%	29%	-2.6%	-1%	u
C/C(=N\NC(=S)NC1CCCCC1)c1ccc(O)cc1	-9%	x	-4%	1%	x	x	x	-15%[46.1 µM]
O=C(CCNC(=O)C1CCN(S(=O)(=O)c2ccccc2)CC1)NCc1ccncc1	-3%	x	-8%	6%	x	x	11%	x
NC(=O)c1c(NC(=O)c2noc3c2CCCC3)sc2c1CCCC2	23%	-4%	x	x	u	-12%	x	u
O=C(Nc1ccc(NC(=O)c2cccs2)cc1)c1cccs1	34%[activator]	x	5%	0%	22%[46.1 µM]	x	27%	u
CN(NC(=O)C1CC(=O)N(c2ccccc2)C1)C1=NS(=O)(=O)c2ccccc21 (stereo not drawn)	-8%	x	10%	-2%	-4%	x	x	8%
CCOC(=O)c1c(-c2ccccc2)cn2ccccc12	-21%	2%	3%	2%	1%	-13%	9%	-22%
COCCCNC(=O)CN1C(=O)/C(=C\c2ccc(C)cc2)Sc2ccccc21	3%	u	25%	-17%	8%	-6.3%	-16%	2%
Cc1ccc(NC(=O)CSCC(=O)Nc2ncc3c(n2)CC(c2ccco2)CC3=O)cc1 (stereo not drawn)	8%	-5%	14%	u	2%	6.8%	1%	-1%
CCOC(=O)N1CCN(c2ncnc3c2oc2nc(C(C)C)c4c(c23)CCC4)CC1	-3%	4%	3%	3%	4%	-4.8%	-50%	4%
COc1ccc2nc(SCC(=O)NCC(F)(F)F)[nH]c2c1	10%	x	43%	-3%	u	x	-1%	u
COc1ccc(OCC(O)CNS(=O)(=O)c2cccs2)cc1 (stereo not drawn)	-1%	x	3%	1%	x	x	1%	x
COCCNC(=O)/C(C#N)=C/c1ccc(OCc2ccc(F)cc2)cc1	0%	x	17%	-10%	-12%[46.1 µM]	x	x	-22%[46.1 µM]
CCOc1cc2c(cc1OCC)-n1cccc1C(c1ccc(F)c(OC)c1)NC2 (stereo not drawn)	u	x	-9%	-1%	x	x	10%	x
CCOc1ccc(C2C=C(c3ccc(C)cc3)Nc3nnnn32)cc1 (stereo not drawn)	2%	-13%	-1%	-4%	-3%	-6.8%	-8%	-12%
Cc1ccc(COc2ccc(Br)cc2/C=N/O)cc1	-5%	8%	32µM*	-21%	u	-10%	-20%	u
CN(c1ccc(F)cc1)S(=O)(=O)N1CCCC(C(=O)NCc2cccc(Br)c2)C1 (stereo not drawn)	-20%	-1%	x	x	u	-5.4%	x	x
CN1C(=O)N(CC(=O)N2CCN(S(=O)(=O)c3ccc4c(c3)CCC4)CC2)C(=O)C12CCCCC2	-8%	x	-12%	-4%	10%	x	x	-4%
COc1ccc(C(=O)/C=C/C(=O)N(Cc2ccc(F)cc2)C(C(=O)NC2CCCCC2)c2ccncc2)c(O)c1 (stereo not drawn)	u	u	1%	-27%	u	-7.3%	2%	u
CCc1ccc(S(=O)(=O)c2nnn3c2nc(N2CCCC2)c2sccc23)cc1	2%	21%	x	x	20%[46.1 µM]	5.6%	x	x
Cc1ccc(OCC(=O)Oc2c(C)cccc2C)cc1C	-16%	x	-14%	-5%	x	x	-36%	x
Cc1c(C(=O)Nc2nc3ccccc3[nH]2)cccc1[N+](=O)[O-]	4%	6%	0%	-10%	23%	-6.3%	4%	u
COc1ccc(NC(=O)COC(=O)C2CC(=O)N(c3ccc(OC(C)C)cc3)C2)cc1 (stereo not drawn)	-3%	x	-2%	0%	-4%	x	7%	12%[46.1 µM]
CCCCCc1nnc(NS(C)(=O)=O)s1	0%	-5%	4%	-4%	3%	1.7%	9%	11%
Cc1cc(C2(c3cc(C)c(NC(=O)CN4CCOCC4)c(C)c3)CCCCC2)cc(C)c1NC(=O)CN1CCOCC1	-8%	u	1%	5%	4%	3.4%	-6%	8%
COc1cccc(/C=C(/C#N)c2ccc(Cl)cc2)c1OCc1cccc(C(=O)O)c1	18%	x	5%	0%	3%	x	5%	-2%[46.1 µM]
COc1ccc(CCN(C(=O)c2snc(C(N)=O)c2N)C(C)C(=O)NC2CCCCC2)cc1OC (stereo not drawn)	21%	x	-9%	6%	x	x	1%	-5%[46.1 µM]
Cc1ccc(CN2CC(C(=O)NCCCSc3ccccc3)CC2=O)cc1 (stereo not drawn)	-14%	x	-2%	1%	u	x	-19%	17%
Cc1ccc(N2CCN(CCc3nc4cc(NS(C)(=O)=O)ccc4n3C)CC2)cc1	u	-4%	-10%	1%	-28%	4.3%	u	-26%&-26%
COc1ccc(-c2cc(CNS(=O)(=O)c3ccc(F)cc3)on2)cc1	-20%	x	-2%	-10%	u	x	x	6%[46.1 µM]
Cn1c(=O)c2c(nc(N3CCCCC3)n2CCCNC2=NCCCC2)n(C)c1=O	-16%	-10%	-29%	2%	7%	-0.6%	1%	3%
CCOC(=O)C1(CCOC)CCN(Cc2cccc(OCc3ccccc3)c2)CC1	u	x	-2%	0%	x	x	5%	x
COc1ccc(CCCNC(=O)C2CCC(=O)N(Cc3ccccc3F)C2)cc1 (stereo not drawn)	19%	x	3%	3%	x	x	-1%	x
Clc1cccc(N2CCN(c3nc4ccccc4n4cnnc34)CC2)c1	u	6%	x	x	x	0.6%	x	-16%[46.1 µM]
CCN(CC)CCCNc1ncnc2c1cnn2-c1ccc(C)c(C)c1	-2%	0%	x	x	u	-0.9%	x	x
Cc1ccc(C(=O)NNC(=O)c2ccc(-n3cncn3)c([N+](=O)[O-])c2)cc1	-20%	x	-18%	-3%	-10%	x	x	u
COc1ccc(CNC(=O)CN2C(=O)CC(c3ccc(C)c(C)c3)=Nc3ccccc32)cc1	38%[activator]	-10%	x	x	-1%[46.1 µM]	-4.0%	x	x
COc1ccc(C(=O)CSc2nc3ccc([N+](=O)[O-])cc3[nH]2)cc1	0%	u	-8%	14%	-18%	-6.1%	10%	-20%
COc1cccc(NC(=O)N2CCN(c3nnnn3-c3ccccc3)CC2)c1	-19%	x	9%	-1%	-21%[46.1 µM]	x	x	u
CCOc1ccc(CN(CCc2ccc3c(c2)OCO3)Cc2ccc(C)cc2)cc1	-20%	-7%	x	x	-3%[46.1 µM]	-0.4%	x	u

A draw from above in order of number of heavy atoms, low to high:
SMILES	2A StopGo	Cruzain noTriton	RE007 growth inh	SARS PLP yeast	Lassa entry inh	Cruzain inh Det	NS1 function inh	MARV entry inh
NC(=O)c1c(NC(=O)c2noc3c2CCCC3)sc2c1CCCC2	23%	-4%	x	x	u	-12%	x	u
COCCCNC(=O)CN1C(=O)/C(=C\c2ccc(C)cc2)Sc2ccccc21	3%	u	25%	-17%	8%	-6.3%	-16%	2%
CCOc1cc2c(cc1OCC)-n1cccc1C(c1ccc(F)c(OC)c1)NC2 (stereo not drawn)	u	x	-9%	-1%	x	x	10%	x

New compounds follow.
SMILES	2A StopGo	Cruzain noTriton	RE007 growth inh	SARS PLP yeast	Lassa entry inh	Cruzain inh Det	NS1 function inh	MARV entry inh
COC(=O)c1cc(NC(=O)CC2NCCNC2=O)cc(C(=O)OC)c1 (stereo not drawn)	-2%	10%	-25%	3%	-1%	4.7%	3%	8%
COc1cc(CCCN2C(=O)C(=O)NC[C@@H]2CCCCN)cc(OC)c1OC	13%	x	-14%	0%	x	x	0%	x
Cc1cc(Nc2nc3ccccc3nc2Cl)n(-c2ccccc2C)n1	x	7%	9%	-34%	-6%	-7.5%	-60%	u
COc1cccc(C2=NOC(C(=O)N3CCC4(CC3)OCCO4)C2)c1 (stereo not drawn)	41%[activator]	0%	13%	-6%	-5%	-1.5%	0%	1%
COc1cc(C(=O)N2CCN(S(=O)(=O)c3cccc(F)c3)CC2)ccc1OCC(=O)N1CCOCC1	-23%	x	-17%	2%	11%	x	x	0%
CCCCC1(C(=O)OCC)CC(CN2CCOCC2)OC1=O (stereo not drawn)	2%	2%	28%	4%	29%	-3.0%	-4%	5%
CN(C)C(CNC(=S)Nc1ccccc1)c1cccnc1 (stereo not drawn)	1%	10%	-3%	2%	1%	1.8%	4%	u
Cc1ccc(CSc2nc3ccccc3c(=O)n2Cc2ccco2)cc1	u	-29%	-12%	-14%	-9%	-7.7%	3%	u
c1ccc(CNc2c3c(nc4ncnn24)CCC3)cc1	-12%	x	-8%	1%	7%	x	-5%	-1%
C=CCSc1nc(=O)n2ccc(C)cc2n1	16%	x	17%	-2%	21%	x	x	33%[46.1 µM]
CC(C)CNC(=O)CO/N=C/c1ccccc1Cl	22%	x	10%	-6%	-6%	x	x	u
Cc1ccc(OCCOc2ccc(Br)cc2)c([N+](=O)[O-])n1	-6%	-12%	-25%	-46%	u	-7.7%	-23%	7%
Cc1ccc(CN(c2ccc(C(=O)NCc3cccnc3)cc2)S(C)(=O)=O)cc1	-27%	2%	3%	4%	-22%	-1.2%	-3%	u
O=C1CC(c2ccccc2Cl)Cc2c1cnn2-c1nc2ccccc2s1 (stereo not drawn)	x	13µM*	x	20%	x	-4.0%	16%	1%
CC(C)(C)NC(=O)C(c1ccccc1)N(Cc1cccs1)C(=O)c1csnn1 (stereo not drawn)	-5%	0%	-2%	16%	3%	-6.3%	-12%	-12%[46.1 µM]
O=C(c1cccc(S(=O)(=O)N2CCc3ccccc32)c1)N1CCN(c2ccccc2)CC1	-12%	x	-3%	-1%	4µM*	x	x	u
COc1ccc(CSc2nc(C)cc(=O)[nH]2)cc1Br	7%	-24%	-2%	-1%	20%[14.3 µM]	-6.3%	-8%	-1%
COc1ccc(OC(C)C(=O)N2CCCc3ccccc32)cc1 (stereo not drawn)	8%	x	4%	-1%	18%[46.1 µM]	x	-3%	7%[46.1 µM]
CCn1cc(C(=O)NCc2ccccc2Cl)cn1	9%	-12%	27%	-7%	u	-5.9%	16%	0%
O=C(c1cc(F)ccc1F)C1CCCN(C(=O)c2cccs2)C1 (stereo not drawn)	-6%	x	8%	1%	-7%[46.1 µM]	x	-6%	-2%[46.1 µM]
CC(OC(=O)COc1ccccc1[N+](=O)[O-])C(=O)Nc1ccc(N2CCOCC2)cc1 (stereo not drawn)	15%	x	-2%	3%	19%[46.1 µM]	x	x	u
